# High-throughput results: PubChem, several laboratories
# RGS16-Gao HTS: modulates binding between human RGS16 and Galphao | 220,000 compounds, 0.38% hits | O15492+P09471 | bead-based flow cytometry RGS16-Galphao binding, fluorescence; actives lie on both sides | binding response (% of control), % at 10 µM;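 active = below 25% or above 175%, edge rows of some plates excepted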;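 note: Galphao activated by GDP with aluminum fluoride before binding; 100% = wells without compound and 0% = beads without RGS; some results beyond the cut were filed as inactive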
# PKD1 kinase inh: blocks activity of human protein kinase D1; Q15139; PKD1 kinase fluorescence polarization assay; inhibition, %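 (about 10 µM by stock and volumes)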; 200,000 compounds, 0.056% hits; AID 797;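 active = inhibition of 50% or more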;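 note: controls were vehicle for no effect and a reference inhibitor for full effect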
# Target sequence (Q15139 whole entry, looked up): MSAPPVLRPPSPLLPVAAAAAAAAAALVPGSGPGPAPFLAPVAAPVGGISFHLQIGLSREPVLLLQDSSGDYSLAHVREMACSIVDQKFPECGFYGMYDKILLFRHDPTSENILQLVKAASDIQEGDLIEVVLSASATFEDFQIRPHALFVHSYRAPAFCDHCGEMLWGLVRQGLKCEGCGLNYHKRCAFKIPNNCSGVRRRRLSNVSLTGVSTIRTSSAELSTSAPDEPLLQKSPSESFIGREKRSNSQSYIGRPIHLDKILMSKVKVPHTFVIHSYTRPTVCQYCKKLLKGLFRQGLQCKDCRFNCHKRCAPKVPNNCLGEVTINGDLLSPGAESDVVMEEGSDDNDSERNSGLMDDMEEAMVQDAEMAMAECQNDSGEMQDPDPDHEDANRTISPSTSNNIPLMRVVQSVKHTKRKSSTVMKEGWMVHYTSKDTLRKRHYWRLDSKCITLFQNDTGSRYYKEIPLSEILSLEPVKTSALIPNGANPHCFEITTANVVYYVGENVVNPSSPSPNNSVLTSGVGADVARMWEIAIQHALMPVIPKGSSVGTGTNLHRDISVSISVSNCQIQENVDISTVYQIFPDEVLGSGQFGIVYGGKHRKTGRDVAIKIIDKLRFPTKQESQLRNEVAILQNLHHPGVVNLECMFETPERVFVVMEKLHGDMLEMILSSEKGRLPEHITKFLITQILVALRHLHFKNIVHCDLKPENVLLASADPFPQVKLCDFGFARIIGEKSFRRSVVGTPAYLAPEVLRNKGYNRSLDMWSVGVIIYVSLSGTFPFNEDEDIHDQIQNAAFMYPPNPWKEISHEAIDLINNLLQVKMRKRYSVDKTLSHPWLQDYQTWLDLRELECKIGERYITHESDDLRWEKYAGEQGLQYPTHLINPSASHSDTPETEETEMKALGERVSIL
# GALR2 agonist: GALR2 (human) receptor agonism; O43603; GALR2-expressing cells, agonist activation read-out; activation, %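 (tested at 5 µM)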; 140,000 compounds, 0.48% hits; AID 803;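 active = above mean plus 3 SD of all compounds, about 5% in these data, not always enough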;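 note: 0% = vehicle buffer wells and 100% = reference agonist at full effect; tested in CHO reporter cells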
# HSV augment: increases HSV replication in cells. maximum fold increase. HSV replication augmentation in cells, fold increase. 220,000 compounds, 0.005% hits. AID 1956;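 active = peak rise of 1.5-fold or more in the series; tested in PC3 cells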;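 note: first round at 10 µM; read as green reporter fluorescence; hits show the peak of a series up to 25 µM; 1 = signal of infected wells without compound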
# Insulin prom inh: TRM-6 insulin promoter activity inhibition. AID 1273. inhibition, % at 2 µM. 130,000 compounds, 0.9% hits. TRM-6 cells (human fetal islet line), insulin promoter-eGFP reporter, imaging; reporter expression induced with tamoxifen;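 active = inhibition above the mean plus 3 SD, with well images judged a real hit on visual review, cut at about 60% in these data, passing the limit was not always enough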
# Insulin prom inh cell count: also measured in Insulin prom inh; calls as there; normalized cell count, %; measured here: cell count, toxicity; reference of the scale not given here;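 cells exposed to compound for 48 h; stained nuclei by imaging scaled within each plate; lower means fewer cells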
# HSV augment primary fold: second read-out of HSV augment, no call of its own (marks repeat the call); fold increase; compound at 10 µM; measured here: primary screen fold increase 10 uM; tested in PC3 cells;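 GFP signal in the first replicate; 1 = infected wells without compound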
# Numbers without * were called inactive; i = inactive; . = not tested or not shown; [ ] = another dose, or the depositor's remark.
SMILES,RGS16-Gao HTS,PKD1 kinase inh,GALR2 agonist,HSV augment,HSV augment primary fold,Insulin prom inh,Insulin prom inh cell count
Cc1ccc(-n2[nH]c(C)c(CCC#N)c2=O)cc1,119,1,-0.7,i,0.91,58,133
CCN(CC)CP(=O)(c1ccccc1)c1ccccc1,94,-2,-2.4,i,0.84,.,.
O=C1OCCC1Sc1nc2cc(Cl)ccc2n1Cc1ccccc1 (stereo not drawn),101,4,-2.1,i,1,-21,225
Cc1ccc(CNC(=O)C23CN(Cc4ccccc4)CC2C(c2ccc([N+](=O)[O-])cc2)=NO3)o1 (stereo not drawn),91,-3,1.4,i,0.99,2,79
Cn1c(SC/C=C/c2ccccc2)nnc1-c1ccco1,97,-4,-2.8,i,0.88,26,51
O=C(NCC1CC1)c1ccc2c3n(nc2c1)-c1ccccc1CO3,99,.,.,i,0.77,.,.
O=S(=O)(Nc1cccnc1)c1cccc(C(F)(F)F)c1,94,2,-2.0,i,0.82,-27,121
CCCOc1ccc(-c2nnc(-c3ccncc3)o2)cc1,95,-6,-0.8,i,0.92,.,.
O=C(NCCCN1CCOCC1)c1cc(-c2ccc(F)cc2)on1,105,0,-3.0,i,1.2,.,.
Cc1cc(C)cc(-n2ccnc2SCC(=O)Nc2ccc3c(c2)OCCO3)c1,102,-14,0.5,i,0.96,-9,73
Cc1ccc2nc(COc3ccc(Cl)cc3)cc(=O)n2c1,96,-2,.,i,1.1,6,69
COC(=O)c1cccc(Cn2cc([N+](=O)[O-])cn2)c1,101,6,.,i,0.97,.,.
CCc1ccc(C(=O)c2ccccc2C(=O)O)s1,99,-3,-0.7,i,0.91,46,97
CCn1c(NC(=O)c2ccc(COc3ccc(C)cc3[N+](=O)[O-])o2)nc2ccccc21,93,5,-2.5,i,0.95,-10,100
CCOC(=O)N1CCN(C(=O)c2cccn3c(=O)c4cc(Cl)ccc4nc23)CC1,93,8,0.1,i,0.95,-11,205
O=C1N2CCSC2=NC1(Nc1nccs1)C(F)(F)F (stereo not drawn),104,5,-0.3,i,1.1,21,156
COC(=O)c1ccc2c(c1)N(Cc1cc(C)ccc1C)C(=O)c1ccccc1S2=O (stereo not drawn),102,-11,-0.1,i,0.92,15,92
COc1cc(NC(=O)c2ccco2)c(OC)cc1NC(=O)Nc1ccccc1Cl,75,-15,-1.1,i,0.88,.,.
COCC1=C(C(=O)OC)C(c2cccs2)n2ncnc2N1 (stereo not drawn),98,.,.,i,0.98,.,.
O=C1C2C3C=CC(C3)C2C(=O)N1c1cccc(N2C(=O)C3C4C=CC(C4)C3C2=O)n1 (stereo not drawn),95,-4,-3.1,i,0.83,-27,121
O=C(NCc1ccco1)c1cccc(Nc2nc3ccc(Br)cc3[nH]2)c1,82,-1,-1.2,i,0.97,39,83
CNC(=O)COC(=O)c1cc(SC)ccc1Cl,103,11,.,i,0.97,.,.
CC(C)(C)C(=O)NC(NC(=S)Nc1sc2c(c1C#N)CCCC2)C(Cl)(Cl)Cl (stereo not drawn),92,-5,-0.4,i,0.92,38,125
O=C(COc1ccccc1O)N1CCN(C(=O)c2ccco2)CC1,85,5,-1.3,i,1,-36,123
CC(=O)NCCC1CCCCN1Cc1nc(Cc2cccc(C(F)(F)F)c2)no1 (stereo not drawn),95,-1,.,i,0.94,.,.
Cc1cc(C)nc(SCc2ccc([N+](=O)[O-])cc2)n1,108,-2,.,i,1,.,.
Cc1ccc(C(C(=O)NC(C)(C)C)N(C(=O)c2csnn2)c2ccccc2F)o1 (stereo not drawn),98,6,-0.1,i,1,.,.
O=C(Nc1ccc(Cl)c(Cl)c1)OCc1cnc(Cl)s1,102,0,-0.2,i,0.75,-15,135
Cc1ccc(S(=O)(=O)Nc2ccc(O)c3ncccc23)cc1,89,-9,.,i,1.1,.,.
COc1ccc(S(=O)(=O)N(CC(=O)NCc2cccnc2)C2CCCCC2)cc1OC,91,.,.,i,1,.,.
COc1ccc(C(=O)Nc2ccc(NC(=O)c3ccco3)c(Cl)c2)cc1OC,84,-4,-1.2,.,.,9,78
COC(=O)C1=NNC2(c3ccc(Cl)cc3)C(=O)N(c3ccccc3)C(=O)C12 (stereo not drawn),88,5,-0.3,i,1.1,.,.
C=CCNC(=S)NCc1cccnc1,276*[activator],-8,-0.9,i,1,11,73
COc1ccc(/C=N/NC(=O)c2ccncc2)c(C(=O)O)c1OC,97,.,.,i,0.94,.,.
CCOC(=O)/C=c1\s/c(=C\c2ccc(-c3ccccc3)cc2)c(=O)n1CC(=O)NCc1ccc2c(c1)OCO2,105,-1,-0.2,i,0.95,-5,93
O=C(Cc1ccc(-n2cccc2)cc1)NCc1ccccc1Cl,100,-12,-0.7,i,0.68,-3,81
S=c1[nH]nc(CNc2ccc(Cl)cc2)n1Cc1ccccc1,105,-2,.,i,0.99,.,.
Cc1cccc(C(=O)Nc2oc(-c3ccccc3)cc2C#N)c1,97,-1,-0.6,i,0.97,-4,129
C#CCOCCOCCOCCNc1nc(N2CCN(C(=O)[C@H](Cc3ccc(O)cc3)n3cc(C(N)CC(C)C)nn3)CC2)nc(N2CCN(C(=O)[C@H](CCC(=O)O)n3cc(C(N)[C@H](C)CC)nn3)CC2)n1 (stereo partly drawn),104,-8,.,i,1.1,.,.
CC(C)(C)Nc1nc(OCC(F)(F)F)nc(OCC(F)(F)F)n1,93,-4,-0.9,i,0.93,8,146

# Full records, quoted from the list. Order of screens: RGS16-Gao HTS	PKD1 kinase inh	GALR2 agonist	HSV augment	HSV augment primary fold	Insulin prom inh	Insulin prom inh cell count
# O=C(NCCCN1CCOCC1)c1cc(-c2ccc(F)cc2)on1 is entered as 105	0	-3.0	i	1.2	.	.
# CC(C)(C)C(=O)NC(NC(=S)Nc1sc2c(c1C#N)CCCC2)C(Cl)(Cl)Cl (stereo not drawn) is entered as 92	-5	-0.4	i	0.92	38	125
# COc1ccc(/C=N/NC(=O)c2ccncc2)c(C(=O)O)c1OC is entered as 97	.	.	i	0.94	.	.

# Quoted at random: three entries already listed
SMILES,RGS16-Gao HTS,PKD1 kinase inh,GALR2 agonist,HSV augment,HSV augment primary fold,Insulin prom inh,Insulin prom inh cell count
C=CCNC(=S)NCc1cccnc1,276*[activator],-8,-0.9,i,1,11,73
Cc1ccc2nc(COc3ccc(Cl)cc3)cc(=O)n2c1,96,-2,.,i,1.1,6,69
Cc1ccc(-n2[nH]c(C)c(CCC#N)c2=O)cc1,119,1,-0.7,i,0.91,58,133

# Three entries out of the list, arranged by length of the SMILES, rising.
SMILES,RGS16-Gao HTS,PKD1 kinase inh,GALR2 agonist,HSV augment,HSV augment primary fold,Insulin prom inh,Insulin prom inh cell count
O=C(Cc1ccc(-n2cccc2)cc1)NCc1ccccc1Cl,100,-12,-0.7,i,0.68,-3,81
COc1ccc(/C=N/NC(=O)c2ccncc2)c(C(=O)O)c1OC,97,.,.,i,0.94,.,.
CC(C)(C)C(=O)NC(NC(=S)Nc1sc2c(c1C#N)CCCC2)C(Cl)(Cl)Cl (stereo not drawn),92,-5,-0.4,i,0.92,38,125

# Other results follow:
SMILES,RGS16-Gao HTS,PKD1 kinase inh,GALR2 agonist,HSV augment,HSV augment primary fold,Insulin prom inh,Insulin prom inh cell count
Cc1nc(SCC2(C)CC2(Cl)Cl)n[nH]1 (stereo not drawn),96,1,.,i,0.93,60,85
COC(=O)C(C)Sc1nnc(-c2ccncc2)o1 (stereo not drawn),89,6,-1.2,i,0.8,-330,42
Cn1c(=O)n(C)c2cc(NS(=O)(=O)c3ccc4c(c3)CCCC4)ccc21,104,1,-1.4,i,0.78,6,54
CCOC(=O)c1c(NC(=O)CSc2nnc(Cc3ccccc3)o2)sc(C)c1C,107,-14,-1.4,i,1,30,107
Cc1cc(C)nc(SCc2cn3c(C)cccc3n2)n1,97,.,.,i,0.91,.,.
CCOc1cc(S(=O)(=O)n2ccc(C)n2)ccc1Br,98,10,.,i,1.1,.,.
O=C1NC(=Nc2ccccc2)SC1Cc1ccccc1 (stereo not drawn),103,0,.,i,0.98,69,103
CCn1c(=O)c([N+](=O)[O-])c(NCC2CCCO2)c2ccccc21 (stereo not drawn),93,.,.,i,0.99,.,.
Cc1ccc(-n2c(SCC(=O)NCc3ccc4c(c3)OCO4)nnc2-c2cccnc2)c(C)c1,89,-1,-0.4,.,.,-5,106
Cc1cccc(Cn2nc(C(C)(C)C)cc2C(=O)Nc2ccc(F)cc2)c1,103,.,.,i,0.94,.,.
Cc1ccc(-c2nnc(CSc3nc4cc5c(cc4cc3C)OCO5)o2)cc1,107,4,-2.8,i,0.77,15,84
O=S(=O)(c1ccc(S(=O)(=O)N2CCN3CCCC3C2)cc1)N1CCCC1 (stereo not drawn),101,3,-0.1,i,1,44,128
C=CCNC(=S)/C(=C(/[O-])c1ccccc1Br)[n+]1ccccc1,51,2,.,i,0.98,0,53
CC(C)Oc1ccc(CCc2n[nH]c(=S)n2-c2ccccc2)cc1,105,-7,.,i,1,-36,121
Cc1nc2ccccc2c2oc(C(=O)NCCCN3CCC(C)CC3)cc12,102,-2,-2.8,i,0.83,.,.
N=C1S/C(=C\c2ccc(-c3ccccc3C(=O)O)o2)C(=O)N1c1ccc2c(c1)OCO2,96,-10,.,i,0.89,28,121
Cc1ccc(Oc2ccc(-c3nc(N)nc(N)n3)cc2)cc1C,106,-2,0.4,i,0.79,17,103
CCN1CCN(CCc2nc3cc([N+](=O)[O-])ccc3n2C)CC1,99,.,.,i,1,.,.
Nc1nc(SCC(=O)NCCC(c2ccccc2)c2ccccc2)n[nH]1,97,4,-2.4,i,0.87,38,75
CC(C)OCCCNC(=O)CCC(=O)NNc1nc2ccccc2c2nc(-c3ccccc3)nn12,95,-8,-2.1,i,1,-13,57

# The list goes on (two carried over from the part before).
SMILES,RGS16-Gao HTS,PKD1 kinase inh,GALR2 agonist,HSV augment,HSV augment primary fold,Insulin prom inh,Insulin prom inh cell count
Nc1nc(SCC(=O)NCCC(c2ccccc2)c2ccccc2)n[nH]1,97,4,-2.4,i,0.87,38,75
CC(C)OCCCNC(=O)CCC(=O)NNc1nc2ccccc2c2nc(-c3ccccc3)nn12,95,-8,-2.1,i,1,-13,57
O=C(NC1CCCCC1)C(c1ccc(F)cc1)N(Cc1ccco1)C(=O)c1ccccn1 (stereo not drawn),104,-5,.,i,0.96,-27,96
CN=C1S/C(=C\c2ccc(N3CCOCC3)c(F)c2)C(=O)N1C,102,-3,-3.1,i,0.89,28,64
O=C(Nc1ncccc1Cl)c1ccccc1F,104,-7,-1.4,i,1.1,-3,71
COc1cccc(NC(=O)COC(=O)CC(NC(N)=O)c2ccc(Cl)cc2)c1 (stereo not drawn),111,.,.,i,1,.,.
Cc1onc(-c2ccccc2)c1C(=O)Nc1nnc(N(C)Cc2ccccc2)s1,100,-8,1.2,i,0.94,.,.
O=C(CNS(=O)(=O)c1cccc2nonc12)NCc1ccc(F)cc1,101,-8,-2.4,i,0.7,-36,80
CCCCCCc1cc2cc(S(=O)(=O)c3ccc(F)cc3)c(=O)oc2cc1O,106,3,14*,i,1.2,.,.
COc1ccc(CCNC(=O)C2CC3Cn4c(nc5cc(Cl)c(Cl)cc54)C3N2C)cc1 (stereo not drawn),99,.,.,i,0.73,.,.
CCn1c(COc2ccc(OC)cc2)nc2ccccc21,90,-3,-0.4,i,0.92,-6,31
Cc1ccc(C)c(OCC(=O)NC(Cc2c[nH]c3ccccc23)C(=O)O)c1 (stereo not drawn),102,-3,.,i,1.1,.,.
COc1cc(CCC(=O)N2CCN(c3ccc(N4CCOCC4)nn3)CC2)cc(OC)c1OC,105,-1,-1.5,.,.,.,.
COc1ccc(/C=C/CN2CCN(Cc3cccc(OC)c3)C(CCO)C2)cc1 (stereo not drawn),109,-4,.,i,0.94,.,.
CC1(C)CC(=O)C(Sc2ccccc2)=C(O)C1,90,.,.,i,1,.,.
O=C(NC(=S)NCCO)c1cn(-c2ccccc2)nc1-c1ccccc1,88,4,.,i,1,.,.
CC1CC/C(=C\c2ccc3c(c2)OCO3)C(=O)/C1=C/c1ccc2c(c1)OCO2 (stereo not drawn),84,2,-0.8,i,0.86,-12,90
O=C(Nc1ccc([N+](=O)[O-])cn1)c1cc(-c2cccc(Br)c2)nc2ccccc12,141,-1,-0.3,i,1,-26,73
COC(=O)C1CCN(C(=O)c2sc3nc(-c4ccc(F)cc4)cn3c2C)CC1,96,6,-1.3,i,0.93,12,117
CCCNc1ncnc2onc(C)c12,100,-4,.,i,0.91,.,.
N#CC1(c2ccc(NC(=O)c3ccccc3)cc2)CCCC1,99,0,-2.5,i,0.76,.,.
CCN1CCN(CCCN(Cc2ccco2)C(=S)Nc2cc(Cl)ccc2C)CC1,92,-5,.,i,0.9,.,.
